Screens from PubChem.
NS1 inh: inhibitors of influenza NS1 protein function. S. cerevisiae slowed by influenza A NS1, growth recovery by OD600. Potency, µM (top dose mostly 46.1 µM), without a hit: at the top dose activity, positive = more growth. 0.4% of 270,000 active. AID 2326; active means well fitted rising curve with a large enough effect; inconclusive means small, poorly fitted or top-dose-only effect; inactive means no such curve, though single readings can be large or run the other way; also: nearly all actives have a fitted effect of over 50% in size
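S. cerevisiae expressing influenza A NS1, grown in glucose, washed, then diluted 1:100 into pH 6.0 -URA galactose medium with 23 nl compound. Growth recovery read as OD600; NS1-free strain serves as control.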
RE007 growth inh: less growth of the S. pombe RE007 Vpr strain; S. pombe RE007 Vpr strain, BacTiter-Glo ATP luminescence, 24 h; control for the full effect not named in the record; 0.21% of 360,000 active; Potency, µM (series often up to 92.2 µM), without a hit: at the highest dose activity change, negative = less growth; AID 651644; active = well fitted falling curve with a large enough effect; inconclusive = small, poorly fitted or top-dose-only effect; inactive = no such curve, though single readings can be large or run the other way;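 also: % is scaled to controls: 0 for no effect and ±100 for the full control effect; nearly all actives have a fitted effect of over 50% in size; the assay follows cell death caused by Vpr and the record does not say whether a fall means rescue or toxicity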
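Fission yeast strain RE007, carrying one chromosomally integrated HIV-1 vpr copy, was seeded at OD 0.01 in PMG+AL medium with 23 nL pinned compound. After 24 h at 30 °C and 99% humidity, viability was read by BacTiter-Glo luminescence.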
Cruzain noTriton: inhibitors of Trypanosoma cruzi cruzain without detergent | P25779 | purified cruzain, Z-FR-AMC fluorescence, no detergent | Potency, µM, without a hit: max response, negative = inhibition, usual class: inhibitors | 2.3% of 200,000 active | AID 1476;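 also: plate controls were enzyme without inhibitor for no effect and buffer without enzyme for full effect; nearly all actives have a fitted effect of over 40% in size; top concentration of the series not given in the record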
Target sequence (P25779 123-467 limits assumed): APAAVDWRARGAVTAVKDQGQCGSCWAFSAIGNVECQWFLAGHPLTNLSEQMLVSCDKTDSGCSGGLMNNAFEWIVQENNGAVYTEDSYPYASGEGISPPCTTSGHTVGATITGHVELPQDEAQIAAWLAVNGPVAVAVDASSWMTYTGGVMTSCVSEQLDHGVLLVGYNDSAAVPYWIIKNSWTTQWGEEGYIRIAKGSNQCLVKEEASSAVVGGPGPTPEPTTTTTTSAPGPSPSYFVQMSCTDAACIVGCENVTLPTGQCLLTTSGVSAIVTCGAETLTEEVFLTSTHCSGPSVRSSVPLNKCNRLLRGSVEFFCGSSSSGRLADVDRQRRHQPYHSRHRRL
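Detergent-free condition (0.00005% Triton X-100) in acetate buffer pH 5.5 with DTT. 1.5 nM enzyme and compound were pre-mixed 15 min, then 2 uM Z-FR-AMC substrate added; reaction progress from fluorescence change between first and third reads (60 s).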
MARV entry inh: Marburg virus entry inhibition. Marburg virus pseudotyped entry inhibition, cell reporter; control for the full effect not named in the record; about a third of the inactives were read at about 46 µM. Potency, µM (titrated, usually from 37.8 µM), for the others: at the top dose activity change, negative = inhibition, actives largely listed as inhibitors. 1.8% of 300,000 active. AID 540276; active = well fitted inhibition curve with a large enough effect; inconclusive = small, poorly fitted or top-dose-only effect, or effect the other way; inactive = flat fitted curve, though single readings scatter; tested in HEK293 cells; about a fifth of its hits are not listed in these tables; also: % is scaled to controls: 0 for no effect and ±100 for the full control effect; luciferase read-out
SARS PLP yeast: SARS-CoV PLP inhibition in yeast; S. cerevisiae expressing SARS-CoV PLpro, growth rescue; control for the full effect not named in the record; Potency, µM (top dose mostly 32.9 µM), inactives show at the highest dose activity, positive = growth rescue; 0.19% of 330,000 active; active means well fitted rising curve with a large enough effect; inconclusive means small, poorly fitted or top-dose-only effect; inactive means no such curve, though single readings can be large or run the other way; also: 0% is about no effect; nearly all actives have a fitted effect of over 55% in size; growth read by luminescence after 48 h
Cruzain Triton: inhibitors of Trypanosoma cruzi cruzain with detergent | P25779 | purified cruzain, Z-FR-AMC fluorescence, 0.01% Triton | Potency, µM, for the others: max response, negative = inhibition, hits mostly inhibitors | 0.43% of 200,000 active;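 also: plate controls were neutral wells for no effect and buffer without enzyme for full effect; nearly all actives have a fitted effect of over 40% in size; top concentration of the series not given in the record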
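Read-out: AMC fluorescence (360 nm excitation, 450 nm emission), four reads over 2 min, first-to-third difference used. Conditions: cruzain 1.5 nM, Z-FR-AMC 2 uM, pH 5.5 acetate, 5 mM DTT, 0.01% Triton X-100.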
LASV entry inh: blocks Lassa virus binding to or entry into cells; 1.2% of 300,000 active; Potency, µM (top dose mostly 37.9 µM), for inactives: at the highest dose activity change, negative = inhibition, most hits filed as inhibitors; Lassa virus pseudotype entry inhibition, cell reporter; control for the full effect not named in the record; AID 540256; active means well fitted inhibition curve with a large enough effect; inconclusive means small, poorly fitted or top-dose-only effect, or effect the other way; inactive means flat fitted curve, though single readings scatter; tested in HEK293 cells; also: % is scaled to controls: 0 for no effect and ±100 for the full control effect; nearly all actives have a fitted effect of over 50% in size; luciferase read-out
StopGo reporter: FMDV 2A StopGo reporter, luciferase signal. human cells with a luciferase reporter of 2A StopGo recoding; control for the full effect not named in the record. 1.2% of 410,000 active. Potency, µM (doses to about 57.9 µM), for inactives: at the highest dose signal change, negative = less light; active = well fitted falling curve with a large enough effect; inconclusive = small, poorly fitted or top-dose-only effect; inactive = no such curve, though single readings can be large or run the other way; tested in HEK293T cells; also: % is scaled to controls: 0 for no effect and ±100 for the full control effect; nearly all actives have a fitted effect of over 45% in size; luciferase light after 4 h
* hit, by the source's call; ? = inconclusive; . = not tested or not shown; & = joins results of further samples; [ ] = another dose, or the depositor's remark. Unless noted, calls follow the shape of the dose curve; as a rule, active = well fitted curve in the direction sought with a large enough effect; inconclusive = small, poorly fitted or top-dose-only effect, or another doubt; inactive = no such curve, though single readings can be large; an effect the other way counts as inactive or inconclusive. Potency is read from the fitted curve at half-maximal effect.

SMILES	NS1 inh	RE007 growth inh	Cruzain noTriton	MARV entry inh	SARS PLP yeast	Cruzain Triton	LASV entry inh	StopGo reporter
CCN(CC)C(=O)Cn1ncc2c([nH]c3ccc(C)cc32)c1=O	.	.	-3%	.	.	-0.1%	3%[46.1 µM]	-5%
Cc1ccc2nc(-c3ccc(NC(=O)COCC(=O)O)cc3)sc2c1	0%	4%	.	-8%[46.1 µM]	1%	.	-5%	50%[activator]
COc1ccc(Nc2nc(N)nc(CSc3nccc(C)n3)n2)cc1	-1%	-5%	-6%	?	1%	-4.3%	-11%	19%
C/C=C\C=C/C(=O)Nc1cccc(C2=NOC3(C2)C[C@@H](C(N)=O)N(C(=O)C2(C)CC2)C3)c1 (stereo not given in full)	-6%	-4%	.	.	2%	.	.	5%
O=C(NCc1ccc(Cl)cc1)C1CCCN(c2cnccn2)C1 (stereo not given)	8%	-18%	.	12%[46.1 µM]	?	.	-5%[46.1 µM]	-19%
O=S(=O)(c1cccc2cccnc12)N(CCO)CCO	-9%	-2%	-2%	.	1%	2.6%	.	-20%
Cc1ccc(S(=O)(=O)N2CCCC(C(=O)NC3=NCCS3)C2)cc1 (stereo not given)	-1%	-7%	-3%	26%	-3%	-1.3%	-9%	21%
O=C(CSc1nc2ccccc2c(=O)[nH]1)Nc1ccc(N2CCOCC2)c(Cl)c1	14%	2%	.	-10%[46.1 µM]	-1%	.	.	-22%
CCC(=O)Nc1cccc(-n2nnnc2SCC(=O)N(C(C)C)C(C)C)c1	-3%	1%	.	-4%[46.1 µM]	1%	.	?	4%
O=C(O)CCCNC(=O)CCn1nnc2ccccc2c1=O	-3%	-18%	.	.	1%	.	.	22%
CC(C)(C)NCC(O)COc1cccc2[nH]c(=O)[nH]c12 (stereo not given)	0%	5%[18.4 µM]	3%	?	.	1.9%	-18%	-9%&-10%
CCCCc1n[nH]c2c1/C(=N/OCC)CC(C)(C)C2	5%	0%	.	?	1%	.	18%	-7%
COc1ccc(C2/C(=C(/O)c3ccc(S(=O)(=O)N4CCOCC4)cc3)C(=O)C(=O)N2CCN2CCOCC2)cc1 (stereo not given)	-3%	0%	.	4%[46.1 µM]	-2%	.	0%[46.1 µM]	-16%
C/C(=N\NC(=O)CN1CCN(Cc2ccc(C)cc2)CC1)c1ccncc1	1%	7%	-4%	0%	19%	-1.2%	1%	-21%
Cc1nc(SCc2ccc(F)cc2)n[nH]1	1%	6%	.	-17%	2%	.	1%	36%[activator]
O=C(COc1ccc([N+](=O)[O-])cc1)NCCc1nc2ccccc2[nH]1	1%	5%	.	21%[46.1 µM]	2%	.	4%[46.1 µM]	-21%
COc1ccc(N2CCN(CCN3C(=O)c4ccccc4C3=O)CC2)cc1	3%	-10%	.	?	-3%	.	.	-8%
COc1ccc(CCNC(=O)c2ccccc2Cl)cc1OC	0%	13%	.	.	1%	.	.	-4%
C=C(C)Cn1cnc2cc(C)c(C)cc21	.	-9%	.	5%[46.1 µM]	7%	.	-3%[46.1 µM]	0%
COc1cccc(NC(=O)Cn2c(=O)n(Cc3ccccc3)c(=O)c3ccccc32)c1	.	.	-10%	17%[46.1 µM]	.	1.3%	-1%[46.1 µM]	-9%
c1ccc(Cn2nnc3c(NCCN4CCOCC4)ncnc32)cc1	?	13%	0%	-17%	-7%	7.0%	5%	4%
O=C(NC1CCOC1)c1ccc(OC2CCN(CCc3ccccc3)CC2)cc1 (stereo not given)	-6%	0%	.	?	1%	.	-1%[46.1 µM]	-21%
CC1(C)C2CCC13CS(=O)(=O)N[C@@H]3C2 (stereo not given in full)	11%	6%	0%	13%[46.1 µM]	0%	2.4%	-7%	-1%
CN1CCC(N(C)C(=S)NC(=O)C23CC4CC(CC(C4)C2)C3)CC1	-3%	11%	0%	?	-10%	-0.3%	14%	-5%
COC(=O)c1coc(-c2ccc(OC)cc2)c1C(=O)OC	-75%	-6%	1%	?	-1%[6.58 µM]	1.0%	3%	22%
Oc1cccc(/C=N/c2c(-c3ccco3)nc3ccccn23)c1	23%	-19%	4%	-3%	-6%	-14%	-2%	.
Cc1ccc(Cc2nnc(SCC(=O)Nc3ccccc3Cl)[nH]c2=O)cc1	.	15%	.	1%	-3%	.	0%	-4%
COc1cccc(NC(=O)CSc2nc3scc(C)c3c(=O)[nH]2)c1	1%	-11%	.	13%[46.1 µM]	0%	.	.	6%
O=C(/C=C/c1ccc[nH]1)c1ccc(F)cc1	9%	-30%	.	.	-3%	.	.	28%
COc1ccc(NC(=S)NCCCN2CCCC2=O)c(OC)c1	7%	-1%	.	?	1%	.	?	3%
CCOC(=O)Cn1cc(/C=N/NC(=O)c2cc3ccccc3o2)c2ccccc21	-10%	2%	.	15%	1%	.	?	-14%
CCCCNc1cnn(-c2ccccc2)c(=O)c1Cl	.	-13%	.	?	1%	.	?	62%[activator]
CC(C)(C)NC(=O)C1CC2CCCCC2CN1 (stereo not given)	.	-1%	.	-8%[46.1 µM]	0%	.	11%	-13%
O=C(Nc1ccc(S(=O)(=O)N2CCCCC2)cc1)c1cnccn1	0%	-16%	16%	-17%	3%	3.4%	12%	-17%
CC(=O)Nc1cccc(/C(C)=N/NC(=O)c2ccc3c(c2)OCO3)c1	-2%	-10%	.	?	-2%	.	-28%	22%
CN(C)c1ccc(/C=N/N=C2/SC(CC(=O)O)C(=O)N2c2ccc(O)cc2)cc1 (stereo not given)	-6%	3%	.	18%[46.1 µM]	2%	.	-3%	-11%
CCOc1nc(C)ccc1-c1noc(-c2cccnc2)n1	-50%	-13%	.	.	-7%	.	.	42%[activator]
Cc1cc(-c2nn(-c3ccccc3F)cc2CN2CCCC(CO)C2)c(C)s1 (stereo not given)	1%	-15%	.	5.6µM*	-1%	.	?	-5%
O=C(CN1C(=O)CSC1=O)N1CCc2ccccc2C1	11%	15%	-23%	5%	-3%	4.4%	-3%	19%
COc1ccc(NS(=O)(=O)c2cccc(C(=O)NCc3cccnc3)c2)cc1	.	-2%	.	0%	0%	.	15%	-7%
CCCCOC(=O)c1ccc(NS(=O)(=O)c2cc(-c3nnnn3CC)ccc2OC)cc1	-14%	12%	?	16%&16%	-1%	-8.4%	1%	-9%
Cc1ccccc1/C=C/C12NC(=O)CN1c1ccccc1C2(C)C (stereo not given)	-8%	-1%	.	-4%	0%	.	-2%	19%
COc1ccc([N+](=O)[O-])cc1NC(=O)C(C)c1ccccc1 (stereo not given)	-2%	13%	-4%	-4%	-2%	-7.0%	-4%	-23%
CC(=O)N1CCc2cc(CNC(=O)Cc3ccc(F)cc3)ccc21	.	.	7%	.	.	1.4%	1%[46.1 µM]	34%[activator]
Cc1ccccc1CNC(=O)c1ccc(CS(=O)Cc2ccc(Cl)cc2)o1 (stereo not given)	.	.	3%	.	.	-4.8%	-1%[46.1 µM]	-7%
COc1cc2ncnc(NCCCN3CCOCC3)c2cc1OC	-2%	2%	.	.	1%	.	.	0%
Cc1ccc(OCC(=O)N2CCCCCCC2)cc1	-2%	11%	.	10%	3%	.	18%	36%[activator]
O=C(Nc1nonc1-c1ccc(Cl)cc1)c1ccccc1F	.	.	-16%	?	.	-6.9%	10%[46.1 µM]	-25%
Cn1c(C(=O)N2CCC(C(=O)NCc3ccccc3)CC2)cc2sccc21	-7%	5%	.	.	-4%	.	.	-15%
CC1CCCN(C(=O)COC(=O)C2=COCCO2)C1 (stereo not given)	.	1%	.	?	0%	.	5%[46.1 µM]	30%
Nc1ncnc(Nc2cc(C(F)(F)F)cc(C(F)(F)F)c2)n1	-1%	-12%	.	.	-4%	.	.	-20%
COc1cc(C(=O)N2CCN(C(=O)c3ccco3)CC2)cc(OC)c1OC	11%	-6%	5%	-20%[46.1 µM]	8%	7.9%	7%	-9%
COc1ccc(NC(=O)CN2C(=O)c3cccc4cccc2c34)c(OC)c1	11%	23%	5%	-12%	4%	5.0%	0%	-5%
CCCOC(=O)c1ccc(NC(=O)c2cc(OC)c(OC)c(OC)c2Br)cc1	-12%	1%	?	?	-17%	-6.5%	?	-11%
CC(NC(=O)C(C)(C)C)C(c1cccs1)N1CCN(Cc2ccccc2)CC1 (stereo not given)	-5%	-15%	.	.	1%	.	.	27%
COC(=O)/C(C#N)=C/c1c(Oc2cc(C)cc(C)c2)nc2c(C)cccn2c1=O	8%	-25%	?	?	7%	-4.3%	-3%	?
Cc1cc(C)c2c(CC(=O)Nc3ccc(S(=O)(=O)N4CCCC(C)C4)cc3)coc2c1 (stereo not given)	.	.	?	?	.	-6.4%	-7%[46.1 µM]	-17%
CC1CCN(c2ccc(C(F)(F)F)cc2N)CC1	.	7%	.	21%	5%	.	0%	-1%
Cc1cc(C)cc(C(=O)NCC(=O)OCc2c(C)noc2C)c1	-2%	12%	-2%	?	5%	0.3%	1%	-23%
O=C1OC(/C(=C\Nc2cc(Cl)ccc2O)[N+](=O)[O-])c2ccccc21 (stereo not given)	.	?	.	?	-21%	.	19%	-27%

Two compounds drawn at random from those above:
SMILES	NS1 inh	RE007 growth inh	Cruzain noTriton	MARV entry inh	SARS PLP yeast	Cruzain Triton	LASV entry inh	StopGo reporter
Cn1c(C(=O)N2CCC(C(=O)NCc3ccccc3)CC2)cc2sccc21	-7%	5%	.	.	-4%	.	.	-15%
O=C1OC(/C(=C\Nc2cc(Cl)ccc2O)[N+](=O)[O-])c2ccccc21 (stereo not given)	.	?	.	?	-21%	.	19%	-27%

Following part:
SMILES	NS1 inh	RE007 growth inh	Cruzain noTriton	MARV entry inh	SARS PLP yeast	Cruzain Triton	LASV entry inh	StopGo reporter
COc1ccc(CCNS(=O)(=O)CCNC(=O)c2ccc3c(c2)OCO3)cc1OC	.	-1%	.	-4%[46.1 µM]	1%	.	-16%	-17%
CCCCCOc1ccc(CSC(=N)N)cc1[N+](=O)[O-]	6%	-7%	-5%	?	2%	2.6%	?	?
O=C(CSc1ncc2c(n1)-c1cc(Cl)ccc1N(Cc1ccccc1)S2(=O)=O)Nc1ccc(F)cc1F	.	.	-15%	.	.	-0.2%	?	?
CN1CCc2nc(SCC(=O)Nc3ccc(OC(F)(F)F)cc3)c(C#N)c(-c3cccs3)c2C1	?	2%	?	?	1%	-5.5%	5%	2%
